# Screens deposited in PubChem BioAssay by National Center for Advancing Translational Sciences (NCATS).
# gsp ag = agonists of gsp mutant (McCune-Albright syndrome) | 340,000 compounds, 0.13% hits | Potency, µM (titrated, usually from 76.9 µM), without a hit: at the highest dose activation (cAMP increase), most hits filed as activators | AID 624287 | gsp mutant cells, cAMP HTRF, 30 min; control for the full effect not named in the record; active = well fitted activation curve with a large enough effect; inconclusive = small, poorly fitted or top-dose-only effect, or another doubt; inactive = no such curve, though single readings can be large or run the other way; cell line not stated here;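 also: phosphodiesterase inhibitor Ro 20-1724 added with compounds to block cAMP breakdown; potency is read from the fitted curve at half-maximal effect; nearly all actives have a fitted effect of over 60% in size; about a fifth of the inactives were tested at one dose only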
#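 Cells stably selected in G418 were plated at 2000/well, grown 16-24 hr, then given compounds in DMSO with the PDE inhibitor […] (300 uM solution added) for 30 min at 37C; cAMP was read by HTRF.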
# CtBP-E1A inh = blocks the CtBP interaction with E1A. activity change, % (no concentration beside the values). AlphaScreen GST-E1A/His-CtBP binding, 1536-well; stronger effect = lower value; control for the full effect not named in the record. 340,000 compounds, 0.49% hits. AID 651724; in the data active means activity change below about -65%; inconclusive means about -30% to -65%; inactive means above about -30%; also: % is scaled to controls: 0 for no effect and ±100 for the full control effect
#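 Steps: dispense buffer (Tris pH 8.0, NaCl 300 mM, TCEP 1 mM, BSA, Tween 20); add 5X protein mix (GST-E1A, His-CtBP, 125 nM each); pin 23 nL compound; 2 h at 37 °C, dark; add 5X beads (50 ug/mL); 1 h; read.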
# Six1-Eya2 blk = Six1/Eya2 interaction inhibition. 360,000 compounds, 0.56% hits. activity change, % (test concentration not listed). AlphaScreen GST-Six1/His-Eya2 binding, biochemical; stronger effect = lower value; control for the full effect not named in the record. Q15475+O00167; in the data active = activity change below about -65%; inconclusive = about -30% to -65%; inactive = above about -30%; also: % is scaled to controls: 0 for no effect and ±100 for the full control effect
# Target sequence (O00167 whole entry, looked up): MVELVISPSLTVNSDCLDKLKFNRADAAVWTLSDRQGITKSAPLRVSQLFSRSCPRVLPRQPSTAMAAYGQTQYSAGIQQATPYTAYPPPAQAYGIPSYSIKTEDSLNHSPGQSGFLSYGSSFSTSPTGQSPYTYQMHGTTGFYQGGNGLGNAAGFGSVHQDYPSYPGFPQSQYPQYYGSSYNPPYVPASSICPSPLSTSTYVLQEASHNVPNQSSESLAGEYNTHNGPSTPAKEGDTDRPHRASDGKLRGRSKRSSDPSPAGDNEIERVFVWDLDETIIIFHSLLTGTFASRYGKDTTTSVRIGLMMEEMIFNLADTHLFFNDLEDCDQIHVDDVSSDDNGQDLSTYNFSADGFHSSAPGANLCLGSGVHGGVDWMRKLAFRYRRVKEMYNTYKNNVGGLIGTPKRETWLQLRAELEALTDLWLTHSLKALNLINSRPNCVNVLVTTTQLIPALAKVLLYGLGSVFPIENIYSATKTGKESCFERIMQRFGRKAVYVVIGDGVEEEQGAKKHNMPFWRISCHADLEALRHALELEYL
# Target sequence (Q15475 whole entry, looked up): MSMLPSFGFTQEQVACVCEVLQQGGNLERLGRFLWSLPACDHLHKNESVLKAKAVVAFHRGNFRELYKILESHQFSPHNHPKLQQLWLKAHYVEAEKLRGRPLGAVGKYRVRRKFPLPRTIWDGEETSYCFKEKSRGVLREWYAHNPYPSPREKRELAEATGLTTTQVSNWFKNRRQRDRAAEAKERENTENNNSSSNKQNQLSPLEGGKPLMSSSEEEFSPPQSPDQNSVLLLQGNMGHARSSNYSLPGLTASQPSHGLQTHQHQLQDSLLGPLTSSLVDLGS
#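 Six1/Eya2 binding was read as AlphaScreen signal after compounds were pinned into GST-Six1 plus His-tagged Eya2 (5X stock 250/500 nM) in pH 8.0 Tris/NaCl/TCEP buffer, beads added, then incubated 1 h, 37 C, dark.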
# D2 potentiator = human D2 receptor positive allosteric modulation. P14416. DiscoveRx D2 beta-arrestin cells, luminescence, 90 min; 100% = 57 uM dopamine signal. potentiation, % (test concentration not listed). 360,000 compounds, 0.23% hits. AID 624464; active = potentiation of 50% or more; inconclusive = 30% to 50%; inactive = 30% or less;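 also: compound concentration not given in the record; tested on top of an EC20 dose of dopamine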
#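 PathHunter beta-arrestin assay in DiscoveRx D2 cells. Compounds were added with an EC20 of dopamine (50 nM final) for 90 min at 37 deg C. Luminescence was read 1 h after detection reagent, with 57 uM dopamine as the EC100 control.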
# gsp antagonist = antagonists of gsp mutant (McCune-Albright syndrome) | 340,000 compounds, 0.4% hits | Potency, µM (titrated, usually from 76.9 µM), without a hit: top-dose activity change, negative = inhibition, usual class: inhibitors | gsp-mutant cells, cAMP HTRF, 30 min; control for the full effect not named in the record | AID 624288; active = falling curve of any shape with a large fitted effect; inconclusive = falling curve, mostly with a smaller effect; inactive = flat or rising curve; cell line not stated here;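 also: intracellular cAMP measured with PDE inhibitor Ro 20-1724 present during compound exposure; potency is read from the fitted curve at half-maximal effect; % is scaled to controls: 0 for no effect and ±100 for the full control effect; nearly all actives have a fitted effect of over 65% in size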
#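 HTRF cAMP read-out (cAMP-d2 plus anti-cAMP antibody-K in lysis buffer, 30 min RT). Before lysis, cells are exposed to compounds with […] for 30 min at 37C in DPBS containing Ca/Mg, BSA and Tween 20.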
# D2 ag = human D2 receptor agonism in beta-arrestin assay; P14416; DiscoveRx PathHunter D2 beta-arrestin, luminescence, 90 min; 100% = 57 uM dopamine signal; activation, % (concentration not given with the values); 360,000 compounds, 0.084% hits; AID 624465; in the data active = activation above about 40%; inconclusive = about 15% to 40%; inactive = below about 15%; also: the text of the record calls up to 30% inactive
#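 DiscoveRx PathHunter D2 beta-arrestin cells (2,100/well) attached overnight, then compound-stimulated 90 min at 37 C in HBSS/10 mM HEPES/0.1% Tween-20 buffer; beta-galactosidase complementation read by luminescence after 1 h at ambient temperature. Dopamine 57 uM final (EC100) as control.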
# * hit, by the source's call; ? = inconclusive; . = not tested or not shown; [ ] = remark or other dose. Compounds were not picked by outcome. About 1.4% of those tested had a hit in this group.
# Below each SMILES: gsp ag | D2 ag | CtBP-E1A inh | Six1-Eya2 blk | D2 potentiator | gsp antagonist
O=C(O)CC(CC(=O)N1CCOCC1)c1ccccc1 (stereo not drawn)
  -19% | 0.0 | . | 6 | -4 | 2%
CC(=O)N(Cc1ccccc1)C1CC(=O)N(Cc2ccccc2)C1=O (stereo not drawn)
  ? | 1.2 | 2 | 5 | -3 | -1%
Cc1occc1-c1n[nH]c(=S)n1C
  7%[15.4 µM] | 3.3 | . | -1 | -5 | -8%
CN(CC(=O)Nc1cccc(F)c1)C(=O)CCNC(=O)c1ccco1
  6%[15.4 µM] | -0.9 | 5 | 2 | 14 | 10%
CC(C)n1c(SCC(=O)Nc2ccccc2)nc2c1c(=O)[nH]c(=O)n2C
  -5%[15.4 µM] | -7.1 | 4 | 0 | -6 | 32%
Cc1cccc(/C(N)=N/OC(=O)c2ccncc2)c1
  2% | 0.8 | 18 | 15 | -6 | -3%
COc1ccc([N+](=O)[O-])cc1N(CC(=O)Nc1ccccc1C(=O)NC(C)C)S(C)(=O)=O
  ? | 5.1 | -1 | -5 | 6 | 2%
CC(C)c1ccccc1NC(=O)COC(=O)Cc1c[nH]c2ccccc12
  -30% | 1.5 | 2 | 6 | -5 | 5%
CC(=O)Nc1ccc(NC(=O)C2(C)Cc3c(-c4cccc(NC(C)=O)c4)ccnc3O2)cc1 (stereo not drawn)
  . | -3.9 | 1 | -3 | -5 | .
Cc1ccccc1N/N=C1\CCCNC1=O
  0% | -1.0 | 0 | 4 | 2 | -1%
NC1=NN(c2ccccc2)C(=O)C1
  21% | -1.7 | 2 | -2 | -15 | 13%
COCCN(C(=O)COC(=O)c1cccnc1SC)c1c(N)n(Cc2ccccc2)c(=O)[nH]c1=O
  15% | -11 | 3 | 0 | -9 | 2%
CCCNC(=O)NCCc1ccncc1
  12% | -2.0 | 3 | -1 | -11 | -6%
Cn1nc(Oc2ncc(C(F)(F)F)cc2Cl)cc1C(F)(F)F
  5%[15.4 µM] | -10 | . | -2 | 0 | -5%
O=C(/C=C/c1ccco1)Nc1cccc(C(=O)Nc2ccccc2C(=O)O)c1
  -31%[inhibitor] | 0.9 | ? | ? | 10 | -7%
Cc1ccc(S(=O)(=O)c2nc(Nc3ccccc3C#N)sc2Cl)cc1
  ? | 3.3 | -4 | -7 | -9 | -7%
COc1cc(/C=C/C(=O)OCC(=O)NCCc2ccccc2)ccc1OC(F)F
  -4% | -1.1 | 2 | 0 | 0 | -5%
CC(C(=O)OCC(=O)Nc1ncc(Cl)cc1Cl)N1C(=O)c2ccccc2C1=O (stereo not drawn)
  2% | -2.5 | 2 | 1 | -3 | -2%
CCN(CC(=O)NCc1cccs1)C(=O)c1cccc(S(=O)(=O)NCc2ccccc2)c1
  -49%[inhibitor] | -0.6 | -10 | 9 | -10 | -1%
Cc1cccc(COCC(CC(C)C)N2CCN(C(=O)c3ccc(C(C)(C)C)cc3)CCC2=O)c1 (stereo not drawn)
  2% | 1.3 | -5 | -12 | -14 | ?
O=[N+]([O-])c1cc(C2Nc3cccc4cccc(c34)N2)ccc1Cl
  9% | ? | -22 | -24 | ? | 0%
CN(C)c1cccc(C(=O)NCc2ccc3c(c2)OCO3)c1
  3% | -3.3 | -17 | -25 | -7 | -8%
O=[N+]([O-])c1ccc(Oc2c(F)c(F)nc(N3CCCC3)c2F)cc1
  4% | -3.7 | -6 | -24 | -8 | -9%
O=C(Nc1cccc(C(F)(F)F)c1)C1CCN(S(=O)(=O)c2cccnc2)CC1
  -2% | 2.0 | . | 0 | -16 | -11%
C=CCNC(=S)Nc1sc2c(c1C(N)=O)CCCC2
  0%[15.4 µM] | -6.8 | -8 | -6 | -19 | 5%
C=CCNS(=O)(=O)c1ccc(OC)c(C)c1
  ? | 2.4 | 51 | 25 | -1 | -1%
CC(C)c1ccc(N(CC(=O)NC2CCCC2)C(=O)CCC(=O)Nc2ccccn2)cc1
  4%[15.4 µM] | -3.4 | 21 | 0 | -2 | 20%
O=C(c1ccc(Br)o1)N1CCN(CCOc2ccccc2)CC1
  18% | ? | -3 | -3 | 10 | 1%
CCOC(=O)c1ccccc1NC(=O)COC(=O)c1ccc(C)c(S(=O)(=O)N2CCOCC2)c1
  -71%[inhibitor] | -6.0 | 3 | -1 | 0 | 4%
CC(Cc1ccccc1)N/C=C1/CC(=O)NC1=O (stereo not drawn)
  -19% | 0.1 | 3 | 4 | 14 | 0%
Cc1ccccc1CNC(=O)CCC(=O)N1Cc2ccccc2Oc2ncccc21
  -37% | -2.7 | . | 15 | -8 | -3%
O=C(c1ccncc1)N(Cc1ccccc1)Cc1nc2ccccc2c(=O)[nH]1
  3% | -2.9 | 6 | -2 | -20 | 11%
O=C(COC(=O)c1cc(=O)c2ccccc2o1)Nc1c(F)c(F)c(F)c(F)c1F
  -28% | -5.2 | 1 | -1 | -4 | 13%
Cc1cc(C)cc(C(=O)Nc2ccc3[nH]c(=O)[nH]c3c2)c1
  -9% | 4.3 | -9 | -16 | 0 | -5%
N#Cc1ccc(N)cc1OCCCN1CCCCC1
  -24% | -0.9 | 3 | 10 | -16 | 11%
O=C(NCC1CCCO1)c1cc2c([nH]c3ccccc32)c(-c2ccc(F)cc2)n1 (stereo not drawn)
  . | 9.7 | 0 | -1 | -16 | ?
Cc1ccc(-n2nc(-c3ccco3)cc2C(=O)O)c(C)c1
  -10%[15.4 µM] | 0.5 | 9 | 1 | -7 | -8%
O=C(/C=C/c1ccc(N2CCCCC2)c([N+](=O)[O-])c1)c1ccc(O)cc1
  1% | -2.3 | -6 | -7 | -10 | ?
Cc1cccc(Oc2ccc(NC(=O)C3CC=CCC3C(=O)O)cc2)c1 (stereo not drawn)
  ? | 5.1 | -12 | -14 | 4 | -12%
Cc1cc(C)c(C(=O)C(C)OC(=O)c2ccc(Cl)nc2)cc1C (stereo not drawn)
  7%[15.4 µM] | 2.5 | 4 | 44 | 4 | -13%
CCSc1nc(=S)n(-c2ccccc2)c(C)c1C(C)=O
  ? | -0.6 | -2 | -1 | 5 | -7%
COc1ccc(C=C2SC(=S)N(CCCN3CCOCC3)C2=O)c(OC)c1
  7% | -3.9 | -9 | ? | -16 | .
Cc1ccc(Cl)cc1NC(=O)c1ccccc1OCC(=O)N1CCOCC1
  6% | -1.9 | -24 | -11 | -9 | -6%
Cc1ccc(-c2c(C(=O)N/N=C/c3cccs3)nnn2-c2nonc2N)cc1
  3% | 2.4 | . | -11 | -2 | -12%
O=C(c1ccc(CS(=O)Cc2ccc(Cl)cc2)o1)N1CCN(c2ccc(F)cc2)CC1 (stereo not drawn)
  -23% | -0.6 | -2 | -2 | -13 | -3%
COC(=O)C(Cc1ccccc1)NC(=O)CNC(=O)c1ccc(Br)cc1 (stereo not drawn)
  -13%[15.4 µM] | -2.9 | 0 | 0 | -12 | -10%
C=C1CCN([C@@H](Cc2ccccc2)C(=O)NCCC(C)C)S(=O)(=O)c2ccccc21
  15% | -5.4 | 4 | 0 | -17 | -13%
O=C(N/N=C\c1cccc(Cl)c1)c1ccc(Cn2cc(Br)c([N+](=O)[O-])n2)o1
  -89%[inhibitor] | 3.3 | -5 | -4 | -3 | -13%
CCn1c2ccccc2c2nnc(SCC(=O)N3CC(C)OC(C)C3)nc21 (stereo not drawn)
  -3% | -8.3 | 9 | -12 | -33 | 3%
COCCN(C(=O)Cn1nnc2ccccc21)C(C(=O)NC1CCCC1)c1cccc(OC)c1OC (stereo not drawn)
  0% | -3.5 | 3 | 2 | -5 | -11%
CN(C)Cc1c(O)ccc2[nH]cnc12
  8% | 3.1 | -4 | -2 | -5 | 5%
CCOc1ccc(-n2c(=O)c3c4c(sc3n(CC(=O)NCC3CCCO3)c2=O)CCC4)cc1 (stereo not drawn)
  2% | -5.9 | . | -4 | 4 | 1%
CC1CCCCN1S(=O)(=O)c1cccc2cccnc12 (stereo not drawn)
  -49%[inhibitor] | -1.2 | 1 | 8 | -6 | 2%
CN(C)c1cccc(/C=C(\C#N)c2ccccc2)c1
  23% | 7.3 | . | -27 | -6 | 17%
CCNC(=O)C(Sc1ccccc1)c1ccccc1 (stereo not drawn)
  2% | -4.3 | 6 | 8 | -4 | 6%
Cc1cccc(NC(=O)CSc2nc(-c3ccccc3)c(C#N)c(=O)[nH]2)c1C
  17% | 0.2 | -7 | 62 | -13 | -4%
Cc1cc(C)c2c(n1)SCC(=O)N2CC(=O)Nc1c(C)cccc1C
  ? | 1.0 | -9 | -3 | -1 | 4%
CCOC(=O)N1CCN(C(=S)NC2CCCC2)CC1
  -39%[inhibitor] | -0.8 | 5 | 7 | 0 | 7%
Cc1ccc(O)c(N=CC2=C(O)c3ccccc3C2=O)c1
  ? | 4.5 | ? | ? | -7 | 8%
Cn1c(CCNC(=O)c2cccs2)nnc1SCC(=O)Nc1nc(-c2ccccc2)cs1
  -39%[inhibitor] | -0.2 | 6 | 0 | -2 | -9%

# Three compounds picked at random from those above:
# Below each SMILES: gsp ag | D2 ag | CtBP-E1A inh | Six1-Eya2 blk | D2 potentiator | gsp antagonist
CN(C)Cc1c(O)ccc2[nH]cnc12
  8% | 3.1 | -4 | -2 | -5 | 5%
O=C(N/N=C\c1cccc(Cl)c1)c1ccc(Cn2cc(Br)c([N+](=O)[O-])n2)o1
  -89%[inhibitor] | 3.3 | -5 | -4 | -3 | -13%
CCOC(=O)N1CCN(C(=S)NC2CCCC2)CC1
  -39%[inhibitor] | -0.8 | 5 | 7 | 0 | 7%

# The listing continues.
# Below each SMILES: gsp ag | D2 ag | CtBP-E1A inh | Six1-Eya2 blk | D2 potentiator | gsp antagonist
Cc1ccc(C=NNC(=O)C(=O)Nc2ccc(Cl)c([N+](=O)[O-])c2)cc1
  . | -2.1 | 7 | -2 | -3 | .
CCN(C(=O)CSc1ncccn1)c1c(N)n(Cc2ccccc2)c(=O)[nH]c1=O
  10% | -3.2 | -11 | 9 | -3 | 6%
COC(=O)C1CC(Cl)CN1c1ncc(C(F)(F)F)cc1Cl (stereo not drawn)
  5% | -0.3 | 0 | -16 | 0 | -21%
CC(C)(C)c1cccc(Oc2nn[nH]n2)c1
  -11% | -6.4 | 0 | 4 | 12 | -18%
O=C(NC12CC3CC(CC(C3)C1)C2)N1CCN(c2ccccn2)CC1
  -4% | 0.6 | -3 | -2 | -8 | -9%
COC(=O)c1ccc(N(C(=O)CNC(=O)c2ccco2)C(C(=O)NCC2CCCO2)c2ccc(OC)c(OC)c2)cc1 (stereo not drawn)
  22%[15.4 µM] | 0.2 | 15 | 7 | 0 | .

# Some of the entries so far, with values ahead of the structure.
gsp ag,D2 ag,CtBP-E1A inh,Six1-Eya2 blk,D2 potentiator,gsp antagonist,Structure
-11%,-6.4,0,4,12,-18%,CC(C)(C)c1cccc(Oc2nn[nH]n2)c1
-4%,0.6,-3,-2,-8,-9%,O=C(NC12CC3CC(CC(C3)C1)C2)N1CCN(c2ccccn2)CC1
